Assay outcomes as filed in PubChem.
AF4-AF9 inh = inhibitors of human MLL-AF4/AF9 interaction; P42568; AlphaScreen, biotin-AF4 peptide binding to FLAG-AF9; inhibition, % at 10 µM; 350,000 compounds, 0.47% hits; AID 651704;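 active = every replicate reaching a set inhibition limit, whatever the replicate mean, cut at about 25% in these data; inconclusive = mean inhibition reaches that limit but some replicates miss it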;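 note: 0% = plate neutral control median and 100% = total signal loss; the record names both 10 and 1 µM as test concentration; the first replicate is given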
Target sequence (P42568 whole entry, looked up): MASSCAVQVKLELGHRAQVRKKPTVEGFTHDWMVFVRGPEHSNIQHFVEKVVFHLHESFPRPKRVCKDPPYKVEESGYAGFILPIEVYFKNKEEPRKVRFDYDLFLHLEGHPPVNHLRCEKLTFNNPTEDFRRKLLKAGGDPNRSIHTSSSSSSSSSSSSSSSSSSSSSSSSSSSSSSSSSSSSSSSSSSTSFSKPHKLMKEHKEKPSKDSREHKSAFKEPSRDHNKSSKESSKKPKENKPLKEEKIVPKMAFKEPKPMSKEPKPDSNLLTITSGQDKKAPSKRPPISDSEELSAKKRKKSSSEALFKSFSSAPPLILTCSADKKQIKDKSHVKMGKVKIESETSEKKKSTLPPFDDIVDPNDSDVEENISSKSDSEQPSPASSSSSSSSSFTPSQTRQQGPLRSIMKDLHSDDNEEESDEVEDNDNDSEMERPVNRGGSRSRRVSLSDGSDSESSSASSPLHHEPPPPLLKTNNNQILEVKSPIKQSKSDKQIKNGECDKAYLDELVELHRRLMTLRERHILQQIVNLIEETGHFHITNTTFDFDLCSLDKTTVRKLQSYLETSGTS
Calb FLC = affects C. albicans growth with fluconazole. C. albicans CaCi-2 (fluconazole-resistant clinical isolate) + fluconazole, Alamar Blue growth, 48 h. 300,000 compounds, 0.57% hits. growth inhibition, % (no concentration beside the values);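 active = most replicates above 75%; inconclusive = exactly half above 75%; inactive = most below 75%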;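 note: all wells also contain fluconazole at 8 µg/ml as a sub-toxic cotreatment; 0% = median of DMSO wells and 100% = median of geldanamycin control wells; wells of about 8 µL received 7.5 nL stock; the first replicate is given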
RanGTP-Imp inh = inhibitors of RanGTP-importin-beta interaction, primary screen, biochemical, FRET, CFP-Ran, YFP-importin-beta, homogeneous | cell-free CFP-Ran/YFP-importin-beta FRET ratio | inhibition, % (no concentration beside the values) | AID 2216 | 300,000 compounds, 1.1% hits;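 active = most replicates above 15%; inconclusive = exactly half above 15%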;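 note: 0% = DMSO wells and 100% = Ran loaded with GDP instead of GTP; wells of about 40 µL received 100 nL stock; the first replicate is given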
FGF22 binding = FGF22 (human) thermal shift binding. recombinant FGF22 thermal shift, SYPRO orange fluorescence; percent of sucrose octasulfate shift, DMSO zero. calls only at 9.99 µM. 340,000 compounds, 1.5% hits;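 active = melting point raised past a set limit in the mean and every replicate; inconclusive = no clear call; three in four hits are not shown here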
Target sequence (Q9HCT0 whole entry, looked up): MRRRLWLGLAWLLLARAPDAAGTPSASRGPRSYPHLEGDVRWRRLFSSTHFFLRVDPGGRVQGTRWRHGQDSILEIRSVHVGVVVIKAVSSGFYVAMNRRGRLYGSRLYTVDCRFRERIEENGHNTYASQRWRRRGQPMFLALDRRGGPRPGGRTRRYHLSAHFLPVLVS
T cruzi inh = T. cruzi replication inhibition; 300,000 compounds, 1.4% hits; T. cruzi beta-gal in NIH3T3, luminescence, 90 h; inhibition, % (concentration not given with the values);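 active = mean inhibition across valid replicates above about 55%, limit read from the data; inconclusive = mean below that limit but half or more replicates reach it; inactive = mean below it, under half of replicates reach it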;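 note: signal also drops with host cell toxicity which is not excluded here; 0% = plate median of DMSO wells and 100% = zero luminescence signal; higher percent means less beta-gal luminescence so fewer parasites; stock transfer was 50 nL into about 50 µL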
ALR H2O2 inh = inhibitors of human sulfhydryl oxidase ALR; P55789; 290,000 compounds, 3.8% hits; inhibition, % (test concentration not listed); purified ALR, DTT oxidation, H2O2 HRP-luminol luminescence;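 active = mean and each replicate at 75% or more; inconclusive = only one of the two met; inactive = neither met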;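 note: stock transfer was 7.5 nL into about 7.5 µL; 0% = neutral wells and 100% = wells with inactivated enzyme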
Target sequence (P55789 whole entry, looked up): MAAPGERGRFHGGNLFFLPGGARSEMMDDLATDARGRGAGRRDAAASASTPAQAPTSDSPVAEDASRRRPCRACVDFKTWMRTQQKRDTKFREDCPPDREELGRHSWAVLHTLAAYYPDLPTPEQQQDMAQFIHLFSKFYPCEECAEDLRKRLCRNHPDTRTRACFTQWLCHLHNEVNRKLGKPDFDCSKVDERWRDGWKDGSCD
rRNA inh HTS = inhibits bacterial ribosomal RNA function over humanized ribosomes. E. coli WT GFP vs humanized-ribosome RFP mutants, fluorescence, 24 h; stronger effect = lower value; DMSO median 0, no signal -100. GFP signal change (wild-type ribosome), % (concentration not given with the values). 350,000 compounds, 1.6% hits;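 active = significant combined selectivity score with lowered wild-type GFP, culture density cut under 30%, mutant RFP and density less affected; inactive = any of these conditions unmet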; note: one replicate is shown; some compounds called inactive have numbers as strong as hits
Beta apoptosis = beta cell apoptosis inhibition. INS-1E cytokine-induced death, ATP luminescence, 48 h; percent of positive-control rescue, neutral wells zero. protection from apoptosis, % (test concentration not listed). 300,000 compounds, 0.8% hits. AID 435005;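 active = all replicates at 75% or more, or half of them and the mean; inconclusive = half reach 75% but not the mean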;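 note: 0% = cytokine-treated negative control wells and 100% = positive control rescue; higher means more ATP so stronger rescue from cytokine killing; wells of about 40 µL received 100 nL stock; the first replicate is given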
rRNA inh HTS OD600 = second read-out of rRNA inh HTS, no call of its own (marks repeat the call); OD600 change, %; measured here: OD600 growth;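 optical density of the mix in the first replicate; 0 = DMSO median and -100 = no signal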
rRNA inh HTS RFP = further read-out of rRNA inh HTS, marked with its call; RFP signal change, %; measured here: RFP humanized mutant strains;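 first replicate; 0 = DMSO median and -100 = no signal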
Numbers without * were called inactive; i = inactive; ? = inconclusive; · = not tested or not shown; + = active, no number. The list is partial; rates above refer to the full screens.

No.	structure	T cruzi inh	Calb FLC	rRNA inh HTS	Beta apoptosis	RanGTP-Imp inh	rRNA inh HTS OD600	AF4-AF9 inh	ALR H2O2 inh	FGF22 binding	rRNA inh HTS RFP
1	O=C1NC(c2ccccc2)=NC1(NS(=O)(=O)c1ccc(Cl)cc1)C(F)(F)F (stereo not drawn)	-27	11	·	-10	2.6	·	·	-22	·	·
2	CCNC(=O)/C(=C\C=C\c1ccccc1)NC(=O)c1ccc(Br)o1	3	1	·	-9	-5.2	·	·	-12	·	·
3	CCC(Sc1nc2ncccc2[nH]1)C(=O)NC1CCCC1 (stereo not drawn)	-16	-4	3	-3	-3.4	12	-0.7	·	i	11
4	COc1cccc(CN(C)C(=S)Nc2ccc(C)c(C)c2)c1	-13	-1	-25*	-7	2.5	0.2*	-2.6	31	i	-1.0*
5	COc1cc2cnc(-c3ccccc3F)cc2cc1OC	·	·	-1	-2	·	3	-9.4	5	i	2.4
6	CCCCCCCCCCS(=O)(=O)N/N=C/c1ccccc1OC	4	-5	·	-2	1.1	·	·	·	·	·
7	Cc1cc(C)cc(NC(=O)CSc2nnc(CNC(=O)c3ccco3)n2C)c1	·	·	5	-1	·	1	1.3	-3	i	-0.3
8	CC(C)N(Cc1ccc(F)cc1)C(=O)c1cc2ccccc2oc1=O	2	-8	1	-4	3.0	7	-0.6	·	i	-2.9
9	CCOC(=O)NC(NC(=S)Nc1ccc(OC)cc1)C(Cl)(Cl)Cl (stereo not drawn)	-10	-17	-7	0	0.5	-17	-0.3	-4	i	-3.3
10	COC(=O)c1ccccc1NC(=O)c1ccccc1SC	5	2	·	-1	-3.5	·	·	-1	·	·
11	Nc1ccc(C#Cc2ccc3sc4ccccc4c(=O)c3c2)cc1	6	-3	·	·	-2.1	·	6.3	-2	i	·
12	COc1cccc(N2C(=O)CC(N3CCc4ccccc43)C2=O)c1 (stereo not drawn)	-3	9	·	-3	7.6	·	·	90*	·	·
13	CCCCn1c(=O)[nH]c(=O)c2c1nc(-c1ccccn1)n2CC	-11	-6	1	-5	6.6	-1	3.7	-13	i	2.3
14	COc1ccc([C@H]2C=C3CN(C(=O)OC(C)(C)C)S(=O)(=O)[C@H]3C[C@H]2OC(=O)c2ccc(C(F)(F)F)cc2)cc1	3	-6	·	·	2.0	·	·	-2	·	·
15	O=c1cc(/C=C/c2c(F)cccc2Cl)[nH]c2ccccc12	-11	-4	·	41	1.8	·	·	6	·	·
16	Nc1nonc1C(=O)NCCNc1ccc([N+](=O)[O-])cn1	-13	0	14	-8	1.8	6	-2.8	-4	i	21
17	COc1ccc(N(CC(=O)Nc2ccccc2SC)S(C)(=O)=O)cc1OC	1	3	·	2	-1.9	·	·	-10	·	·
18	CC(C)(C)c1ccc(C(=O)Nc2ccc(CN3CCS(=O)(=O)CC3)cc2)cc1	-5	9	-11	2	-1.3	6	-3.0	9	i	1.4
19	Cc1sc(NC(=O)COc2ccccc2)c(C#N)c1-c1ccccc1	2	7	·	1	1.5	·	·	-3	·	·
20	O=C(CN(Cc1ccccc1)S(=O)(=O)c1ccccc1)N/N=C/c1ccccc1C(=O)O	-9	6	2	0	-3.5	-7	-4.2	6	+	-2.8
21	O=C1NN=C(c2ccc(Cl)cc2)CC1c1cccc(Cl)c1 (stereo not drawn)	-2	-16	·	-17	-1.4	·	·	-4	·	·
22	COc1ccc(CC(=O)NC(=S)NNC(=O)COc2c(C)cccc2C)cc1	-29	14	·	4	-4.7	·	·	3	·	·
23	CCOC(=O)N1CCC(NC(=O)Cn2cc3c(n2)CCC(C)C3)CC1 (stereo not drawn)	-4	-6	·	-4	-0.2	·	·	-1	·	·
24	O=C(CSc1nnc(Nc2ccccc2)s1)NC1CCS(=O)(=O)C1 (stereo not drawn)	·	·	13	-5	·	16	-0.8	·	i	-1.6
25	O=C(CSc1ccsc1[N+](=O)[O-])NCc1ccco1	-9	?	-5	4	-3.0	-1	5.0	4	i	-4.1
26	COC(=O)c1cccc(C23CC4(C2)[C@H](CN(C)[C@@H]4c2ccccc2)C3c2ccccc2)c1 (stereo partly drawn)	22	-22	-8	30	0.6	-19	·	-6	i	1.0
27	CCOC(=O)C[C@H]1c2ccccc2S(=O)(=O)N1c1ccccc1	-11	-4	15	-5	-4.0	7	-4.2	-6	i	1.4
28	S=C(NCc1ccc(Cl)cc1)NCc1ccco1	-44	-34	-4	-1	-1.3	-10	2.9	6	i	-0.8
29	CC(O/N=C\c1ccccc1O)C(=O)Nc1ccccc1C(=O)N1CCOCC1 (stereo not drawn)	-30	13	·	·	6.7	·	·	3	·	·
30	CC1CN(C(=O)c2ccc(COc3ccccc3Br)o2)CC(C)O1 (stereo not drawn)	1	4	-5	-3	2.3	-3	-0.2	-5	i	3.0
31	Fc1cccc(Nc2nc3ccccc3n3cnnc23)c1	11	3	13	-2	2.3	17	-11	-12	i	0.1
32	Cc1cc(NC(=O)CCC(=O)N(Cc2ccco2)C(C(=O)NC2CCCCC2)c2cccs2)no1 (stereo not drawn)	8	-2	-15	-1	-0.9	-12	1.5	-12	i	5.4
33	c1cc2c3c(cccc3c1)C(N1CCOCC1)=N2	-2	3	-1	-4	-3.7	-3	2.3	-63	i	7.6
34	COc1ccc(NC(=O)C2CCCN2S(=O)(=O)c2ccc(F)cc2)cc1 (stereo not drawn)	-3	28	5	-1	4.8	13	0.5	-7	i	-2.1
35	COc1ccc(S(=O)(=O)N2CCOCC2)cc1NC(=O)CSc1ccccc1	2	·	-5	-11	·	-2	1.5	-5	i	2.8
36	COc1ccc(CN2CCNC(=O)C2CC(=O)N2CCc3ccccc3C2)c(OC)c1 (stereo not drawn)	-1	-6	11	-5	?	12	-1.0	-12	i	1.4
37	CCc1ccc(NC(=O)C(C)OC(=O)/C=C/c2cccc([N+](=O)[O-])c2)cc1 (stereo not drawn)	-4	5	·	-30	-0.2	·	·	-2	·	·
38	O=C(CCC(=O)N(CC(=O)NC1CCCC1)Cc1ccc2c(c1)OCO2)Nc1ccccn1	-1	-3	·	-7	0.1	·	·	3	·	·
39	CCOC(=O)c1ccc(NS(=O)(=O)c2cnc[nH]2)cc1	-7	5	·	-4	-1.7	·	·	-16	·	·
40	CCCc1cc(NCCCn2ccnc2)n2nc(C)c(-c3ccccc3)c2n1	17	-1	-36	35	-2.6	-66	16	67	i	0.2
41	CCc1ccc(N2CC(C(=O)OCC(=O)NNC(=O)c3ccccc3)CC2=O)cc1 (stereo not drawn)	-10	-2	4	-8	1.5	7	-0.4	-15	i	-0.6
42	CCCN(CCO)Cc1cccc(Oc2ccccc2)c1	22	-39	·	4	-3.4	·	·	-21	·	·
43	CCCCCCn1c2c(c(=N)c3c1CCC3)CCC2	84*	-4	·	109*	-0.5	·	·	99*	·	·
44	Cc1ccccc1Nc1nc(N)nc(COC(=O)C(NC(=O)c2ccco2)C(C)C)n1 (stereo not drawn)	-15	29	·	4	-6.9	·	·	11	·	·
45	CCSc1nc(C2CC2)cc(-c2cccs2)c1C#N	41	4	·	-2	2.0	·	·	-2	·	·
46	NC(=O)c1nsc(C(=O)N(CC(=O)NC2CCCCC2)c2cccc(F)c2)c1N	1	-12	-1	-1	-2.7	-11	-0.5	·	i	-1.5
47	CC(C)(C)C(=O)NNC(=O)c1cc(C(C)(C)C)nn1Cc1ccccc1	21	4	9	-8	2.7	7	-0.6	-6	i	-1.7
48	N#C/C=C(/N)c1ccc(Br)cc1	-2	7	·	-1	-1.8	·	·	-6	·	·
49	Cn1c2c(c(=O)n3ncnc13)CCCC2	-8	-8	15	2	0.4	4	-2.4	-16	i	0.6
50	CC(C)c1nc(CNC(=O)C2CCC(=O)N(Cc3ccc(Cl)cc3)C2)no1 (stereo not drawn)	-5	-3	4	-1	4.7	5	-0.5	0	i	0.7
51	COc1ccc(-n2c(C)cc(C(=O)COC(=O)c3cc(NC(=O)c4cccs4)c(OC)c(OC)c3)c2C)cc1	20	-3	5	1	?	3	-0.8	-5	i	2.3
52	CNC(=O)C(=O)N/N=C/c1ccc(Br)cc1	-17	9	23	2	-3.2	16	-0.2	2	i	1.2
53	COc1ccc(-c2nnc(NC(=O)CSc3ccc(C)cc3)s2)cc1OC	-4	0	17	-14	-3.8	14	-58	·	i	2.5
54	Cc1cc(C)c2c(=O)n(CC(=O)Nc3cccc(Cl)c3C)sc2n1	58*	1	7	-7	5.8	10	·	5	i	4.3
55	Cc1cc(C)c2cc(C(c3nnnn3CC3CCCO3)N3CCN4CCCC4C3)c(=O)[nH]c2c1 (stereo not drawn)	-19	0	9	0	4.7	3	-38	-13	i	0.0
56	COC(=O)c1cc(S(=O)(=O)NCc2cc(OC)c(OC)c(OC)c2)cn1C	-18	10	3	2	0.1	11	0.2	1	i	-2.0
57	O=C(NCc1n[nH]c(=S)n1-c1ccccc1)c1ccc(S(=O)(=O)N2CCCCC2)cc1	-13	29	2	-9	7.4	8	-9.3	31	i	-3.0
58	CC1(OC(=O)C2CCCC2)C(=O)C=C2C=C(c3ccsc3)N(Cc3ccc4c(c3)OCO4)C=C2C1=O (stereo not drawn)	23	10	11	-3	2.9	10	5.7	·	i	2.2
59	COc1ccc2c(c1OC)C(=O)N(c1ccc(C)cc1)C2=O	-12	-6	8	-4	4.8	10	-3.0	-4	i	-0.6
60	CC(=O)CCN1CCOCC1	-25	-2	·	-10	-1.9	·	·	-2	·	·

(continued)
No.	structure	T cruzi inh	Calb FLC	rRNA inh HTS	Beta apoptosis	RanGTP-Imp inh	rRNA inh HTS OD600	AF4-AF9 inh	ALR H2O2 inh	FGF22 binding	rRNA inh HTS RFP
61	CCOC(=O)c1c(NC(=O)C(NCCN(C)C)c2ccccc2)sc2c1CCCC2 (stereo not drawn)	26	-15	-38	24	-1.6	-52	29*	1	i	-2.1
62	CCOc1ccccc1Nc1ccc(C(=O)O)cc1[N+](=O)[O-]	-3	30	1	7	0.6	-11	-2.6	-2	i	-0.9
63	Cc1ccc(C(=O)NC(C)c2ccc3c(c2)OCO3)s1 (stereo not drawn)	-7	-45	-2	-3	-4.3	6	-0.8	-3	i	-3.1
64	Cn1c(=O)c(=O)n(C)c2cc(N3CCCC3)c(NS(=O)(=O)c3ccc(Cl)cc3)cc21	-3	8	14	·	?	6	10	12	i	-0.6
65	Cc1cccc(C)c1Nc1c(-c2ccsc2)nc2ncccn12	13	-10	·	2	-3.1	·	·	98*	·	·
66	CC(C)(C)C(=O)NNC(=O)C1CC1(c1ccccc1)c1ccccc1 (stereo not drawn)	-10	-8	12	-4	?	6	0.7	1	i	1.8
67	CCNC(=S)NC1CC2CCCC(C1)N2Cc1ccco1 (stereo not drawn)	-19	-3	·	-3	2.2	·	·	3	·	·
68	O=C1c2cc([N+](=O)[O-])cc3cc([N+](=O)[O-])cc(c23)C(=O)N1c1ccccn1	42	20	-6	-24	-4.9	-4	-11	-12	i	54
